Screens from PubChem.
Rango release inh: qHTS Assay for Inhibitors of RanGTP induced Rango (Ran-regulated importin-beta cargo) - Importin beta complex dissociation. 340,000 compounds, 0.071% hits. Biochemical FRET Rango-importin beta, RanGTP-induced dissociation. Potency, µM (highest dose often 46.1 µM), for the others: top-dose activity change, negative = inhibition; active means falling FRET ratio curve, often poorly fitted, with flat reads before Ran was added; inconclusive means other falling curves, or compound fluorescence or quenching; inactive means flat or rising ratio curve;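 further: potency means the concentration at half of the fitted maximal effect; % of control where 0% means no effect; nearly all actives have a fitted effect of over 45% in size; -100% = wells without RanGTP and RCC1; the record marks most hits as doubtful in a second field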
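Quantitative HTS using a FRET biosensor: 0.1 uM Rango, 0.25 uM importin beta, 0.6 uM Ran, 2 mM GTP, 0.2 uM RCC1 final, PBS with DTT, Tween-20 and BSA. Post-read taken 45 min after Ran addition.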
GLA inh pH 4.5: qHTS Assay for Inhibitors of Human alpha-Galactosidase at pH 4.5 | Alpha-galactosidase A (Homo sapiens), P06280 | purified enzyme, 4-MU-alpha-Gal fluorescence, pH 4.5 | activity change, negative = inhibition, % at 105 µM | 230,000 tested, under 10 active; inconclusive = small, poorly fitted or top-dose-only inhibition, or a rising curve; inactive = flat fitted curve, though single readings scatter; no compound was filed as active;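 further: 0% = full activity with enzyme and -100% = basal without enzyme; dose as in the result columns while the protocol names 77 µM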
miR-21 reporter: qHTS Assay for Modulators of miRNAs and/orActivators of miR-21; HeLa miR-21 FLuc reporter, luciferase, 48 h; Potency, µM (series often up to 38.3 µM), without a hit: top-dose reporter change, positive = more light; 340,000 tested, under 10 active; AID 2288, 2010; active = well fitted rising curve with a large enough effect; inconclusive = small, poorly fitted or top-dose-only effect; inactive = no such curve, though single readings can be large or run the other way;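 further: % of control where 0% means no effect; miR-21 action dims this reporter so a rising signal means less miR-21 action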
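HeLa cells endogenously expressing miR-21, stably carrying CMV-driven firefly luciferase with a downstream miR-21 binding site, 2000 cells/well. Titrations up to approximately 40 uM, 48 hours; luciferase luminescence read.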
Rango complex inh: qHTS Assay for Inhibitors of Rango (Ran-regulated importin-beta cargo) - Importin beta complex formation. Importin subunit beta-1 (Homo sapiens), Q14974. 340,000 compounds, 0.031% hits. Rango CFP/YFP FRET sensor + importin beta, 45 min. AID 540263, 2011. Potency, µM (highest dose often 92.2 µM), without a hit: at the highest dose inhibition of complex formation; active = rising FRET ratio curve, often small or poorly fitted; inconclusive = mostly compound fluorescence or quenching in the first reads; inactive = flat curves in all reads;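 further: potency means the concentration at half of the fitted maximal effect; 0% = DMSO wells and 100% = buffer wells lacking importin beta; nearly all actives have a fitted effect of over 15% in size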
Target sequence (Q14974 whole entry, looked up): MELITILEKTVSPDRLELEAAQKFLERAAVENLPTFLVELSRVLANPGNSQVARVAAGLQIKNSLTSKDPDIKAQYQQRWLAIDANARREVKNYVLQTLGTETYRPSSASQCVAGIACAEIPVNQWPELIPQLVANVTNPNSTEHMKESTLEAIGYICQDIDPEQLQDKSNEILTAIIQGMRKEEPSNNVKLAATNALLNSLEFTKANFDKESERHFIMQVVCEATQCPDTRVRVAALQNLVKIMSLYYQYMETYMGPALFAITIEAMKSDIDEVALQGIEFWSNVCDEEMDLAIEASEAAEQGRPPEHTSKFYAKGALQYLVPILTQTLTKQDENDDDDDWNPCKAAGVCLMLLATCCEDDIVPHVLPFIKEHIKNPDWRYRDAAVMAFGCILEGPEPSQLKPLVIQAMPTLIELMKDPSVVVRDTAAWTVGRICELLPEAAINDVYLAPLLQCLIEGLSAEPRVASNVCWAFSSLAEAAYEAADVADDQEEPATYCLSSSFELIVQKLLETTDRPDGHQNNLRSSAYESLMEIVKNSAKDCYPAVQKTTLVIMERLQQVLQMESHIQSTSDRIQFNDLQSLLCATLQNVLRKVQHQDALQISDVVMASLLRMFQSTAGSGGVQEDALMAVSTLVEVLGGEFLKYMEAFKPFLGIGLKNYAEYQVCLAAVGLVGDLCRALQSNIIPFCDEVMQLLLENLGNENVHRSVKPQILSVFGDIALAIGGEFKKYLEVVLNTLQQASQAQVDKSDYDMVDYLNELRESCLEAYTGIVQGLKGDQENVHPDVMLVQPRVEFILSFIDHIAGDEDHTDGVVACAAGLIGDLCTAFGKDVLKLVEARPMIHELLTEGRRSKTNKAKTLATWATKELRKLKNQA
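FRET biosensor (snurportin 1 IBB flanked by EYFP and cerulean), 50 nM, with compound 5 min, then 0.125 microM importin beta in PBS, 1 mM DTT, 0.02% Tween-20, 0.1% BSA. CFP/YFP ratio read after 45 min at room temperature; pre-read flags interference.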
An asterisk follows results filed as active; ? = inconclusive; . = no result given.

SMILES	Rango release inh	GLA inh pH 4.5	miR-21 reporter	Rango complex inh
COc1cccc(CNC(=O)C2CCCN(c3ncnc4c3nc3n4CCCCC3)C2)c1 (stereo not given)	-2%	.	-3%	-3.4%
COc1ccc(NC(=O)Nc2cccc3c2O[C@H](CN(C)Cc2ccc(-c4ccccc4)cc2)[C@@H](C)CN([C@H](C)CO)C3=O)cc1	?	.	.	1.6%
COCCN(Cc1nc(-c2ccc(C(F)(F)F)cc2)no1)C(C)C	9%	1	-17%	-0.4%
COC(=O)c1cccc(S(=O)(=O)N2CCCC2)c1	3%	2	-12%	-0.1%
O=C(Nc1ccc(F)c(S(=O)(=O)N2CCOCC2)c1)C1CCCCC1	-7%	.	.	-1.3%
COc1ccccc1Oc1ccc(NC(=O)c2ccccc2)cc1	-2%	8	-27%	-8.2%
COC(=O)c1[nH]nc2c1C(=O)N(Cc1ccccc1)C2=O	1%	11	-6%	-2.2%
Cc1n[nH]c(C)c1Sc1ccccc1[N+](=O)[O-]	29%	-8	-18%	4.1%
Cc1ccc(C(=O)Nc2cc(C)nn2CCC#N)cc1	10%	.	-6%	0.0%
N#Cc1cc([N+](=O)[O-])ccc1NC(=O)COC(=O)C12CC3CC(CC(C3)C1)C2	.	-3	-2%	.
COc1cc(OC)c(NC(=O)c2sc3ncn(CC(=O)N4CCOCC4)c(=O)c3c2C)cc1Cl	-6%	.	-12%	-1.5%
Cc1ccc(N2C(=O)CSC2c2cccs2)cc1 (stereo not given)	-7%	1	-5%	-0.1%
O=C(COc1ccc(Cl)cc1)Nc1nc(-c2ccncc2)cs1	0%	.	-1%	0.7%
CN(C)c1cc[n+](CC(=O)Nc2cccc([N+](=O)[O-])c2)cc1	3%	.	7%	0.8%
Cc1cc(C(=O)CSc2cccc[n+]2[O-])c(C)n1-c1ccc(OC(F)F)cc1	18%	0	-26%	0.7%
O=C(CNC1CCCCC1)NCC1(c2ccccc2)CCCC1	-1%	-30	0%	1.4%
CC(C)Nc1ccc(C(CC(N)=O)NC(=O)Cc2ccc(Cl)cc2)cc1[N+](=O)[O-] (stereo not given)	3%	5	11%	0.5%
CCn1cc(CN2CCCC(CNS(=O)(=O)c3ccc(OC)cc3)C2)cn1 (stereo not given)	-10%	.	-4%	-1.1%
Cc1cc(=O)[nH]c(SCCCOc2ccc3c(c2)CCC3)n1	6%	-7	-7%	-3.3%
COc1ccc(NC(=O)c2cccnc2)c([N+](=O)[O-])c1	-18%	3	12%	?
COc1cccc(CN2CCNC(=O)C2CC(=O)NCCc2nc(C)c(C)s2)c1OC (stereo not given)	?	3	0%	-0.4%
COC(=O)c1cn(C(C)C(=O)NCc2ccco2)c2ccccc12 (stereo not given)	-3%	-14	-4%	1.7%
Cc1cc(C)nc(N2CCCC(C(=O)NCCc3ccccc3F)C2)n1 (stereo not given)	-1%	8	-1%	0.3%
CCOC(=O)c1nnc2c(Br)c(-c3ccccc3)nn2c1C	2%	-2	-9%	-0.7%
COCCN(C(=O)CN1CCc2ccccc21)c1c(N)n(Cc2ccccc2)c(=O)[nH]c1=O	?	.	.	?

A few values from the list:
Rango complex inh with COc1ccc(NC(=O)Nc2cccc3c2O[C@H](CN(C)Cc2ccc(-c4ccccc4)cc2)[C@@H](C)CN([C@H](C)CO)C3=O)cc1 is entered as 1.6%
GLA inh pH 4.5 with COc1ccc(NC(=O)c2cccnc2)c([N+](=O)[O-])c1 is entered as 3

Following part.
SMILES	Rango release inh	GLA inh pH 4.5	miR-21 reporter	Rango complex inh
CC(C)Cn1c(=O)c2c(nc3n2CCCN3Cc2ccccc2)n(C)c1=O	3%	.	3%	0.1%
COc1ccc(NC(=O)c2ccc(S(=O)(=O)N3CCOCC3)cc2)c(OC)c1	2%	2	-2%	-1.6%
CCc1ccc(C2=NN(CCC(=O)NC3CC3)C(=O)CC2)cc1	.	0	-14%	.
Cc1noc(C)c1COc1ccc(C(=O)OCC(=O)NCc2ccccc2Cl)cc1	3%	0	0%	2.9%
Cc1cc(C)c2nc(N3CCC(C(=O)N4CCN(c5ncccn5)CC4)CC3)sc2c1	22%	-6	3%	-3.1%
Cc1cccc(CNc2ccc(C(CC(N)=O)NC(=O)Cc3cccc4ccccc34)cc2[N+](=O)[O-])c1 (stereo not given)	7%	2	-1%	5.7%
CN(C)c1ccc(-c2nn3c(-c4cccnc4)nnc3s2)cc1	2%	-4	-11%	-4.4%
CC1=C(C(=O)N2CCCC(N3CCN(c4ccccc4F)CC3)C2)OCCO1 (stereo not given)	-1%	.	-7%	-2.0%
O=S(=O)(NCc1ccccc1)c1ccc(Br)c2nsnc12	-3%	-6	4%	2.5%
Cn1c(Cc2cccc3ccccc23)nnc1SCC(=O)N1CCN(c2ccccc2)CC1	9%	0	15%	0.1%
COc1ccccc1CN1CCCC(N2CCN(c3ccc(F)cc3)CC2)C1 (stereo not given)	-2%	.	5%	-4.0%
Cc1ccc(OCCOCCn2ccnc2)c(Br)c1	3%	-22	-30%	-0.1%
O=c1oc2cc(Oc3ccc(C(F)(F)F)cc3[N+](=O)[O-])ccc2c2c1CCC2	1%	6	-9%	0.1%
CCN(CC)C(=O)CN(c1ccc(Cl)cc1)S(=O)(=O)c1ccccc1	-9%	1	3%	-1.4%
CCOc1ccc(OCC)c(NC(=O)c2ccc(CNc3c(N4CCCC4)c(=O)c3=O)cc2)c1	-7%	-3	1%	-0.2%
O=C(O)c1cc(N2CCOCC2)nc2ccccc12	0%	.	0%	-5.4%
CC(=O)c1ccc(N(C(=O)c2csnn2)C(C(=O)NC(C)(C)C)c2cccs2)cc1 (stereo not given)	-22%	4	0%	-1.8%
c1ccc(OCc2nn3c(-c4n[nH]c5c4CCC5)nnc3s2)cc1	-1%	-15	-7%	-6.0%
COc1ccc(N2CCN(C(=O)CCCCCn3c(=O)[nH]c4ccsc4c3=O)CC2)cc1	17%	4	7%	-0.5%
Clc1ccccc1-c1nc(N/N=C/c2cccnc2)c2ccccc2n1	-19%	-4	0%	-2.2%
O=C1CCN(Cc2ccccc2)C=C1c1ccc(C(F)(F)F)cc1	7%	.	.	1.6%
O=C(CN1CCCC1)OCCCc1ccccc1	16%	8	-5%	1.8%
Cc1cc(C)c2nc(C(F)(F)F)nc(NCCCN3CCOCC3)c2c1	?	-11	21%	0.1%
COC(=O)[C@@H](NCc1cccc(CN([C@H](C(=O)OC)C(C)C)S(C)(=O)=O)c1)C(C)C	-10%	.	7%	2.2%
COc1ccc(-n2c(C)c([N+](=O)[O-])c3ccc(O)c(CN4CCCCC4)c32)cc1	0%	-19	14%	2.3%

Entries listed so far with an aryl thioether with sulfur outside any ring (4):
SMILES	Rango release inh	GLA inh pH 4.5	miR-21 reporter	Rango complex inh
Cc1n[nH]c(C)c1Sc1ccccc1[N+](=O)[O-]	29%	-8	-18%	4.1%
Cc1cc(C(=O)CSc2cccc[n+]2[O-])c(C)n1-c1ccc(OC(F)F)cc1	18%	0	-26%	0.7%
Cc1cc(=O)[nH]c(SCCCOc2ccc3c(c2)CCC3)n1	6%	-7	-7%	-3.3%
Cn1c(Cc2cccc3ccccc23)nnc1SCC(=O)N1CCN(c2ccccc2)CC1	9%	0	15%	0.1%

More records.
SMILES	Rango release inh	GLA inh pH 4.5	miR-21 reporter	Rango complex inh
COc1cc(C(=O)OCC2CC(c3ccccc3)=NO2)cc(OC)c1OC (stereo not given)	4%	1	-10%	-3.6%
O=C(CN(Cc1ccccc1)S(=O)(=O)c1ccc(F)cc1)NCc1ccccn1	14%	.	0%	6.6%
Cn1nc(-c2ccccc2)c(N2CCCCC2)cc1=O	-8%	-4	0%	0.6%
O=C(Nc1nnc(C(F)(F)F)s1)C1COc2ccccc2O1 (stereo not given)	-3%	2	-9%	3.9%
CC(C)(C)OC(=O)N1CCC[C@H]1c1nnc(SCc2cccc(Cl)c2)o1	-11%	-9	-1%	-2.0%
CC1CCCCC1NC(=O)COC(=O)c1cc(=O)c2ccccc2o1 (stereo not given)	8%	-17	0%	-0.7%
Cc1cc(C)c(NC(=O)CNC(=O)c2ccc3c(=O)n4c(nc3c2)CCC4)c(C)c1	-3%	.	.	-0.9%
O=C(Nc1ccc(Cc2ccncc2)cc1)C1CCC(N2C(=O)C3C4C=CC(C5CC45)C3C2=O)CC1 (stereo not given)	1%	-4	6%	-5.4%
O=C(/C=C/c1ccco1)Oc1ccc(C(=S)N2CCOCC2)cc1	3%	-1	0%	1.1%
Cc1ccc(CCN2CCN=C2Nc2ccccc2)cc1	-9%	.	.	-2.0%
c1ccc(Cn2nnnc2C(c2cccnc2)N2CCN(c3ccccc3)CC2)cc1 (stereo not given)	0%	-3	12%	-0.7%
CN(C)Cc1c(-c2ccc(Cl)cc2)nc2ccccn12	-12%	-7	-71%	0.3%
Cc1cc(N/C=C\c2nnnn2-c2ccc(F)cc2)no1	8%	-8	-11%	-0.5%
Cc1ccc(C(=O)C2=C(O)C(=O)N(CC3CCCO3)C2c2ccccc2F)o1 (stereo not given)	-8%	.	1%	-2.9%
O=C1[C@H]2[C@@H](c3ccc(F)cc3)N3C(=O)N(c4ccc(Br)cc4)C(=O)[C@@]3(Cc3ccc(Cl)cc3)[C@H]2C(=O)N1C1CCCCC1	?	.	2%	-1.0%
C/C(=N\NC(=O)c1nnn(-c2nonc2N)c1-c1cccs1)c1ccncc1	-9%	.	7%	-0.5%
CCCCN(C(=O)C1CSC2(C)CCC(=O)N12)c1c(N)n(CC(C)C)c(=O)[nH]c1=O (stereo not given)	8%	.	.	-0.2%
O=c1cc(-c2ccccc2)nc(SCc2ccccc2)[nH]1	1%	1	-5%	2.6%
CCOc1[nH]n(-c2ccccc2)c(=O)c1C=Nc1ccccc1	6%	-3	21%	-1.7%
CSc1c(SCc2ccccc2)cnn(Cc2ccccc2)c1=O	14%	-6	-16%	-0.3%
Clc1ccc(-c2nnc(NCCN3CCCC3)c3ccccc23)cc1	-5%	.	-6%	4.5%
OCCNCCCCCOc1ccc(F)cc1	-3%	0	-7%	-2.6%
CCCC(=O)c1c(NC)cc(C)oc1=O	21%	0	-1%	-6.3%
CC(C)CN(C(=O)COC(=O)c1c2c(nc3ccccc13)CCC2)c1c(N)n(Cc2ccccc2)c(=O)[nH]c1=O	-1%	.	-11%	-3.0%
CCC1CCc2sc(C(=O)N(C)CC(=O)Nc3ccc(OC)cc3)cc2C1 (stereo not given)	-3%	.	.	0.2%
Next compounds
SMILES	Rango release inh	GLA inh pH 4.5	miR-21 reporter	Rango complex inh
CSc1ccccc1OCc1cc(C(=O)N2CCNC(=O)C2)no1	11%	.	-8%	-0.1%
COc1ccc2c(COC(=O)c3cccc(S(=O)(=O)NCC(C)C)c3)cc(=O)oc2c1	-7%	.	0%	-1.8%
CCOC(=O)C1=C(O)C(=O)N(Cc2ccc(C(C)(C)C)cc2)CC1	?	-1	-5%	1.2%
O=C(NCC(c1ccco1)N1CCc2ccccc21)c1cccc([N+](=O)[O-])c1 (stereo not given)	8%	.	.	-0.6%
COCCCNCC(=O)c1c(N)n(Cc2ccccc2)c(=O)n(C)c1=O	3%	0	-10%	-0.9%
Cc1ccc(NC(=O)c2cc(-c3cccs3)nc3ccccc23)nc1	0%	-2	19%	0.6%
Cc1ccc(NS(=O)(=O)c2cc(C(=O)N3CCCC3)ccc2C)cc1C	4%	7	2%	1.3%
Cc1ccc(NC(=O)Cn2c(-c3ccc(F)cc3)cnc2SCC(=O)Nc2c(C)cccc2C)cc1	-13%	4	-9%	-1.1%
O=C1c2sc3nc4c(c(=O)n3c2C(=O)N1c1ccccc1)CCC4	13%	-6	12%	-0.2%
CC(=O)Nc1cccc(-c2csc(Nc3ncccn3)n2)c1	.	-28	-52%	.
COC(=O)CCN(C(=O)c1ccc([N+](=O)[O-])cc1)c1ccccn1	-6%	-6	-2%	0.4%
CN(C)CCCN(C(=O)c1cccs1)c1nc2cc3c(cc2s1)OCO3	-5%	?	-44%	3.4%
CC(CN1C(C)CCCC1C)OC(=O)c1ccc(Cl)cc1Cl (stereo not given)	2%	-2	-1%	-2.6%
CC(=O)Nc1ccc2nc(CN3CCC(CO)(CCc4ccccc4)CC3)ccc2c1	-11%	0	-3%	6.3%

These rows are one share of the data (hit frequency here may not be typical).
